# VDR inhibitor – inhibitors of human vitamin D receptor. P11473. VDR-SRC2-3 peptide fluorescence polarization, 2 h. Potency, µM, for the others: max response, negative = inhibition, usual class: inhibitors. 0.93% of 400,000 active. AID 504847; active = well fitted inhibition curve with a large enough effect; inconclusive = small, poorly fitted or top-dose-only effect, or another doubt; inactive = no such curve, though single readings can be large or run the other way; also: series mostly up to about 120 µM
# Target sequence (P11473 whole entry, looked up): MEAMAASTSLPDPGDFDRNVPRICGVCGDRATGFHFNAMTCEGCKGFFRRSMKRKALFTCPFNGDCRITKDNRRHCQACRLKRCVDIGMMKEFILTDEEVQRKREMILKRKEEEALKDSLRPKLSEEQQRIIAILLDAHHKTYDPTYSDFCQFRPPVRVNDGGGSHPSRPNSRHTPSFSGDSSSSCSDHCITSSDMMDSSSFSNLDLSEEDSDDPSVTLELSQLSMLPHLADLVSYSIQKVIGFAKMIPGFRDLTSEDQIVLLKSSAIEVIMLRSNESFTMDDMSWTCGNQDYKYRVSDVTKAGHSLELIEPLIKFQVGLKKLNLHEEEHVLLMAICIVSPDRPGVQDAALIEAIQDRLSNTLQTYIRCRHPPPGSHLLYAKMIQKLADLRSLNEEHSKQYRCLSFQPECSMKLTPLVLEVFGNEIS
#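 Two reagent solutions held at 4 deg C in the dark were dispensed, compounds pinned at 23 nl, and the mixture incubated 2 h at room temperature. Read-out: fluorescence polarization of VDR–SRC2-3 peptide binding.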
# An asterisk follows results filed as active; ? = inconclusive. % is scaled to controls: 0 for no effect and ±100 for the full control effect; potency is read from the fitted curve at half-maximal effect. These rows are one share of the data. The share of hits here may be higher or lower than overall.
# A first look, 5 compounds:
VDR inhibitor | molecule
-13.3% | CCCCC1CCC(C(=O)OCC(=O)Nc2ccc(S(N)(=O)=O)cc2)CC1 (stereo not given)
-2.7% | OCC1CCCN(C(=S)Nc2ccc(Oc3ccccc3)cc2)C1 (stereo not given)
39.8µM* | N#C/C(=C\c1c(Oc2ccc(Br)cc2)nc2ccccn2c1=O)c1nc2ccccc2s1
9.2% | CC(NC(=O)CNC(=S)N(Cc1cccs1)C1CCCC1)c1ccccc1 (stereo not given)
-2.8% | Cn1c(=O)[nH]c(=O)c2c1nc(N1CCOCC1)n2CCN1CCOCC1

# All compounds of this part, previewed entries included:
VDR inhibitor | molecule
-13.3% | CCCCC1CCC(C(=O)OCC(=O)Nc2ccc(S(N)(=O)=O)cc2)CC1 (stereo not given)
-2.7% | OCC1CCCN(C(=S)Nc2ccc(Oc3ccccc3)cc2)C1 (stereo not given)
39.8µM* | N#C/C(=C\c1c(Oc2ccc(Br)cc2)nc2ccccn2c1=O)c1nc2ccccc2s1
9.2% | CC(NC(=O)CNC(=S)N(Cc1cccs1)C1CCCC1)c1ccccc1 (stereo not given)
-2.8% | Cn1c(=O)[nH]c(=O)c2c1nc(N1CCOCC1)n2CCN1CCOCC1
9.0% | CSc1nc(-c2cccs2)c(C#N)c(=O)[nH]1
9.3% | CC1CCN(CCCNc2cc(NCCO)c([N+](=O)[O-])c3nonc23)CC1
-21.9% | CN(C(=O)COc1cc(=O)n(C)c2ccccc12)c1cccc(Cl)c1
-24.1% | CCOCCCNC(=O)Cn1cnc2c(cnn2-c2ccc(OC)cc2)c1=O
-11.3% | O=C(COC(=O)c1ccc[nH]c1=O)NC1CCCC1
-8.0% | CCc1ccc(OCC(=O)NC(=S)Nc2ccc(F)cc2)c(Br)c1
-20.6% | c1ccc(-n2nnc3c(N4CCOCC4)ncnc32)cc1
-6.4% | Cc1nn(Cc2ccc(Br)cc2)c(C)c1NC(=O)c1nn(C)cc1Cl
-20.3% | Nc1ccccc1-c1nc2ccccc2[nH]c1=O
0.6% | NC[C@@H]1O[C@@H](O[C@H]2[C@H](O)[C@@H](O[C@@H]3O[C@@H](CO)[C@H](O)[C@@H](N)[C@@H]3O)[C@H](N)C[C@@H]2N)[C@@H](O)[C@H](O)[C@H]1O
-21.4% | CCOc1ccc(C=NNc2ccc(S(=O)(=O)Nc3ccccc3C(=O)O)cc2[N+](=O)[O-])cc1
2.8% | CCCC(CCC)C(=O)Nc1cccc(-c2nc3cccnc3s2)c1C
-10.8% | O=C1CCCN1c1cc(Cl)cc(Cl)c1
? | O=C(Oc1ccc(C(=S)N2CCOCC2)cc1)c1ccc(F)cc1
-0.7% | Cc1cc(C)cc(NC(=O)CSc2nnc(-c3cc4occc4n3C)n2-c2ccccc2C)c1
13.3% | C/C(CC(=O)Nc1ccc(Cl)cc1Cl)=N\NC(=O)c1cnccn1
-7.0% | COc1ccc(OC(C)C(=O)Nc2cccc([N+](=O)[O-])c2)cc1 (stereo not given)
-1.7% | NS(=O)(=O)c1ccc(NC(=S)N2CCN(Cc3ccc(Cl)c(Cl)c3)CC2)cc1
-9.4% | CCCCCCCN1CCC(=O)N([C@H](CO)CC(C)C)CC1
-9.3% | COc1cc(OC)cc(-c2nnc(SCC(=O)NCc3cccs3)o2)c1
-9.7% | CC(C)(CNC(=O)c1cccc(F)c1)CNC(=O)c1cccc(F)c1
-11.5% | O=C(c1ccc(OC2CCN(CCCc3ccccc3)CC2)cc1)N1CCCC1
9.4% | COC(=O)[C@]1(C)N[C@H](CN(C)C(=O)c2ccc(F)cc2)[C@@H]2C(=O)N(C)C(=O)[C@@H]21
-15.6% | CCN1CCN(c2ccc(S(=O)(=O)N3CCCCC3)cc2NC(=O)c2ccc(F)cc2)CC1
26.5% | COCCn1c(C)cc(C(=O)COc2ccc(N(C)S(=O)(=O)c3ccc(C)cc3)cc2)c1C
-19.3% | Cc1ccc2c(c1)N=C(c1ccccc1)CC(C(Cl)Cl)=N2
8.1% | COC(=O)C1(C)NC(=O)c2ccccc2N1 (stereo not given)
11.8% | O=C(c1n[nH]c(=O)c2ccccc12)N1CCN(Cc2ccc3c(c2)OCO3)CC1
-16.8% | COc1cc(CNCc2ccccc2)ccc1OCC(O)c1ccccc1 (stereo not given)
-22.2% | O=C(Nc1ccc(C(F)(F)F)cc1)C1CCN(S(=O)(=O)c2ccc(N3CCCC3=O)cc2)CC1
-22.7% | O=S(=O)(O)c1cc(O)c2ccc(Nc3ccccc3)cc2c1
7.6% | CCSc1nsc(NC(=O)Nc2cccc(C(C)=O)c2)n1
-7.8% | CCN(CC)c1ccc(/C=N/NC(=O)c2cccc(S(=O)(=O)Nc3ccccc3OC)c2)c(O)c1
-14.1% | COc1ccc(C(=O)N[C@H](C(=O)OCc2nc3ccsc3c(=O)[nH]2)C(C)C)cc1
8.0% | O=C(CN1C(=O)NC2(CCCc3ccccc32)C1=O)c1ccc(F)c(F)c1 (stereo not given)
-10.1% | CN(C)c1nc(N)nc(CSc2ncc(Cl)cc2Cl)n1
2.0% | NC(=O)C1CCN(c2ncccc2[N+](=O)[O-])CC1
16.8% | O=C(Cn1c(=S)[nH]c2ccccc2c1=O)N1CCc2ccccc2C1
6.1% | O=C(NCc1ccc(Cl)cc1)c1ccc(N2CCCC2=O)cc1
0.1% | Cc1cccc(C)c1N(CC(=O)NCc1ccccc1)C(=O)c1csnn1
-14.2% | Cc1ccc(S(=O)(=O)Nc2ccc(NC(=O)/C=C/C(=O)O)cc2)cc1
-5.0% | Cc1nnc(N(C)C(=O)Cc2ccc3c(c2)OCO3)s1
? | Cc1ccc(C2C=C(c3ccccc3)Nc3ncnn32)cc1 (stereo not given)
-2.8% | Cc1ccsc1C(=O)OCC(=O)NC1CCCC1
-1.4% | CCC1(NC(C)=O)CC2CC1CC2NC(C)=O (stereo not given)
6.3% | CN1CCN(C(=O)C(=O)Nc2c3c(nn2-c2ccc(F)cc2)CSC3)CC1
7.3% | CCN(CC)CCCNC(=O)C(=O)Nc1ccc2nc3n(c(=O)c2c1)CCCCC3
-18.9% | COc1ccccc1CCNC(=O)CSc1nc(-c2ccco2)cc(C(F)(F)F)n1
3.4% | COc1ccc(CCNC(=O)c2ccc3c(c2)N(Cc2ccc(Cl)cc2)C(=O)c2ccccc2S3)cc1OC
-14.7% | CCOC(=O)[C@H]1[C@H]2COc3ccc(OC)cc3[C@@H]2N2C(=O)c3ccc(C)cc3NC(=O)[C@@]12C
-7.8% | CC1(OC(=O)CCc2ccccc2)C(=O)C=C2C=C3CCCN3C=C2C1=O (stereo not given)
-11.0% | COc1ccc(CC(=O)Nc2ccc(F)c(Cl)c2)cc1S(=O)(=O)N1CCOCC1
5.1% | CC(C)c1ccc(C2CC(=O)c3cnc(N4CCc5ccccc5C4)nc3C2)cc1 (stereo not given)
3.7% | CCN(CC)CCN1C(=O)C(=O)/C(=C(/O)c2ccc(S(=O)(=O)N3CCOCC3)cc2)C1c1ccc(C(C)(C)C)cc1 (stereo not given)
5.8% | CCN(CC)S(=O)(=O)c1ccc(C(=O)OCC(=O)N2CCOCC2)cc1

# (further entries)
VDR inhibitor | molecule
15.9% | c1ccc2nc(-c3nc4ccccc4o3)ccc2c1
13.9% | CCOC(=O)c1ccccc1NC1(c2ccc(OC)cc2)C(=O)c2ccccc2C1=O
-8.2% | Cc1ccc(-c2nc(CS(=O)(=O)CC(=O)NCCCN3CCOCC3)c(C)o2)cc1
-2.7% | Cc1cc2[nH]c3ccccc3c2c(C)n1
-20.7% | COc1ccccc1S(=O)Cc1ccc(C(=O)NC2CCCC2)o1 (stereo not given)
10.0% | CC(C)CN(C(=O)COc1ccc2ccc(=O)oc2c1)C1CCS(=O)(=O)C1 (stereo not given)
14.2% | O=C(NCCC(=O)N1CCc2ccccc21)c1ccco1
-12.8% | Cc1ccc(C)c(NC(=O)CCC(=O)NNC(=O)c2cccc([N+](=O)[O-])c2)c1
1.0% | CC/C(=N\Nc1ccccc1[N+](=O)[O-])c1ccc(O)cc1
8.6% | CC1CCCN(C(=O)N2c3ccccc3Sc3ccccc32)C1 (stereo not given)
-10.8% | CCC(C)C(=O)Nn1c(C2CC2)nc2cc(OC)c(OC)cc2c1=O (stereo not given)
5.8% | CCC(=O)Nc1ccc(C(=O)Nc2ccc3c(c2)C(=O)N(CC2CCCO2)C3=O)cc1 (stereo not given)
-24.4% | O=C(c1cccnc1Cl)N(Cc1ccccc1)Cc1ccccc1
14.2% | CCOC(=O)c1c(S(=O)(=O)N2CCCC(C(=O)NCc3cccc(C)c3)C2)c(C)n(C)c1C (stereo not given)
-13.3% | COc1ccc(C2c3[nH]c4ccccc4c3CCN2Cc2ccoc2)c(F)c1 (stereo not given)
-1.9% | O=C(C1CCCC1)N1CCC(CC2CC(c3ccc(Cl)cc3)=NO2)(C(=O)NCC2CCCCC2)CC1 (stereo not given)
-4.1% | OC(COc1ccccc1)CN1CCCCC1 (stereo not given)
3.4% | O=C(/C=C/c1ccccc1)NC(=S)NNC(=O)c1cnccn1
-6.6% | O=C(Cn1nnc(-c2ccc(S(=O)(=O)N3CCCC3)cc2)n1)NCC1CCCO1 (stereo not given)
3.2% | COc1ccc(/C=C/c2nnc(NC(=O)c3ccco3)s2)cc1
-5.0% | O=c1c(-c2nnc(SCc3ccc(Cl)cc3Cl)o2)cccn1Cc1ccccc1
-1.5% | O=C(c1cc(C(F)(F)F)cc(C(F)(F)F)c1)N1CCC2(CC1)CCN(c1ccccc1)CC2
-6.1% | Cc1cccc(Cn2c(COc3ccccc3)nc3ccccc32)c1
0.0% | O=C(O)C(Cc1ccccc1)N1C(=O)C2CCCCC2C1=O (stereo not given)
3.4% | CCN(C[C@H]1N[C@@](Cc2ccccc2)(C(=O)OC)[C@H]2C(=O)N(C)C(=O)[C@@H]12)S(=O)(=O)c1ccccc1
8.3% | CCN(CC)S(=O)(=O)c1ccc(NC(=O)C2COc3ccccc3O2)cc1 (stereo not given)
9.1% | N#C/C(=C\c1ccc(Cl)cc1)c1nc(-c2ccco2)cs1
11.9% | Cn1ncc([N+](=O)[O-])c1C(=O)N/N=C/c1ccc(F)cc1
-14.7% | COc1ccc(NC(=O)Cn2nnc3sc4c(c3c2=O)CC(C)(C)OC4)cc1
23.9% | Cc1ccccc1CN1CCN(c2nc3ccccc3s2)CC1
-1.7% | Cc1ccccc1-c1nnn(CC(=O)c2ccc(S(=O)(=O)N3CCCC3)cc2)n1
-6.2% | COc1cc(OC)cc(OC(=O)C2CCN(C(=O)c3ccc(F)cc3)CC2)c1
-1.1% | Cc1ccc(C)c2sc(N3CCN(C(=O)C(C)(C)C)CC3)nc12
6.2% | COc1cc(OC)cc(C(=O)Nc2nc(CC(=O)NCc3ccc(F)cc3)cs2)c1
8.3% | COc1cccc(-c2cc(C(F)(F)F)n3nc(N)nc3n2)c1
8.2% | CCOC(=O)c1c(C)oc2nc(C)nc(Nc3cc(C)cc(C)c3)c12

# An excerpt from above in order of molar mass, smallest number first.
VDR inhibitor | molecule
8.6% | CC1CCCN(C(=O)N2c3ccccc3Sc3ccccc32)C1 (stereo not given)
3.2% | COc1ccc(/C=C/c2nnc(NC(=O)c3ccco3)s2)cc1
-2.7% | OCC1CCCN(C(=S)Nc2ccc(Oc3ccccc3)cc2)C1 (stereo not given)
-21.9% | CN(C(=O)COc1cc(=O)n(C)c2ccccc12)c1cccc(Cl)c1
5.8% | CCC(=O)Nc1ccc(C(=O)Nc2ccc3c(c2)C(=O)N(CC2CCCO2)C3=O)cc1 (stereo not given)
-8.2% | Cc1ccc(-c2nc(CS(=O)(=O)CC(=O)NCCCN3CCOCC3)c(C)o2)cc1
3.4% | CCN(C[C@H]1N[C@@](Cc2ccccc2)(C(=O)OC)[C@H]2C(=O)N(C)C(=O)[C@@H]12)S(=O)(=O)c1ccccc1

# Other entries.
VDR inhibitor | molecule
-21.6% | O=C(c1ccco1)N1CCN(C(=O)C(c2ccccc2)c2ccccc2)CC1
-6.2% | COc1ccc(N=C2CC(C)(C)CC(=O)/C2=C(/O)c2ccccc2)cc1
-8.2% | COc1cc(NC(=O)Nc2cccc([N+](=O)[O-])c2)cc(OC)c1
-2.5% | O=C(CSc1ncccn1)N1CCc2ccccc2C1
1.3% | CCOC(=O)c1sc(NC(=O)/C=C/c2ccccc2)nc1C
-1.6% | COc1ccc(N2CCN(C3CCCN(S(=O)(=O)c4ccccc4)C3)CC2)cc1 (stereo not given)
10.3% | O=C(Cn1nc(-c2ccccc2)ccc1=O)Nc1ccc(N2CCN(C(=O)c3ccccc3)CC2)cc1
3.8% | Cc1cc(C)cc(NC(=O)c2ccc(S(=O)(=O)NCc3cccnc3)cc2)c1
-20.5% | Nc1c(C(=O)CSc2nccn2-c2ccc(Cl)cc2)c(=O)[nH]c(=O)n1C1CC1
? | COC(=O)c1nc(NC(=O)c2cc(OC)c(OC)c(OC)c2)n[nH]1
17.1% | O=C(O)C1CC(c2cccc(Br)c2)=NO1 (stereo not given)
-10.7% | O=C(c1cc(-c2cccc(O)c2)on1)N1CCN(C(c2ccccc2)c2ccccc2)CC1
-9.1% | CCCCn1c(SCN2C(=O)c3ccccc3C2=O)nc2cc(S(N)(=O)=O)ccc21
-17.6% | O=C(COc1coc(CN2CCc3ccccc3C2)cc1=O)Nc1ccc([N+](=O)[O-])cc1
-9.9% | CC(C)c1ccc(N(CC(=O)NCc2ccco2)C(=O)CCC(=O)Nc2ccccn2)cc1
12.7% | CC1(C)CC(=O)c2cnc(NC(=O)CSc3nc4ccccc4o3)nc2C1
7.9% | CCN1C(=O)/C(=C/N2CCc3ccccc32)SC1=S
4.0% | O=c1[nH]c(=S)n(-c2cccc(Cl)c2)c(O)c1/C=N/N1CCOCC1
-5.1% | COc1ccc(NC(=O)CCc2nnc3ccc(NCc4ccc5c(c4)OCO5)nn23)cc1
-11.9% | N/C(COc1ccc(Cl)cc1Cl)=N\NS(=O)(=O)c1ccccc1
-4.5% | O=C1C2CCC(C2)C1CN1CCOCC1 (stereo not given)
